Screens deposited in PubChem BioAssay by National Center for Advancing Translational Sciences (NCATS).
A647 fluor: compound fluoresces in the A647 spectral region | Compound fluorescence, A647 channel (570/671 nm), Tris buffer | max dye-equivalent concentration, M | 59,000 tested, under 10 active | AID 592; active means above 1 µM dye equivalent; inconclusive means 0.1 to 1 µM; inactive means 0.1 µM or less;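 further: values scaled relative to a standard on each plate; highest value over a series up to 38 µM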
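Compounds pinned into 100 mM Tris pH 8.0, 15 min at room temperature, then read with 570 nm excitation/671 nm emission filters. Fluorescence normalized to an on-plate six-point Alexa 647 standard curve, giving dye-equivalent concentration per compound concentration.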
Resorufin fluor: resorufin region autofluorescence. Compound fluorescence, resorufin region 547/598 nm, buffer; hits give high values. max dye-equivalent concentration, M. 59,000 tested, 0.04% active. AID 588; active = above 10 nM dye equivalent; inconclusive = 1 to 10 nM; inactive = 1 nM or less; a few of its hits are not listed in these tables; further: highest value over a series up to 38 µM
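Dye-equivalent concentration values derive from comparing each well's 547/598 nm fluorescence against resorufin standards included on every plate. Incubation was 15 min at room temperature in 100 mM Tris, pH 8.0.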
AID923: qHTS Assay for Allosteric/Competitive Inhibitors of Caspase-1: Spectroscopic Profiling in AFC Spectral Region | compound fluorescence, AFC spectral region (405/520 nm); almost no hit is shown here | Potency, µM (doses to about 57.5 µM), for inactives: top-dose fluorescence increase, usual class: activators | 75,000 tested, 1.1% active | AID 923, 2007; active means well fitted activation curve with a large enough effect; inconclusive means small, poorly fitted or top-dose-only effect;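 further: potency means the concentration at half of the fitted maximal effect; 0% is about no effect; scaled to a free AFC standard on each plate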
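Compound autofluorescence profiled at 405 nm ex/520 nm em during kinetic caspase 1 run (50 nM enzyme, 5 uM Ac-WEHD-AFC, HEPES pH 7.5, 10 mM DTT). Titration up to 57 uM; baseline from regression intercept, normalized to AFC standard curve.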
TSHR ag: agonists of human thyroid stimulating hormone receptor | HEK293-CNG-TSHR cells (CNG channel as cAMP sensor), membrane potential dye, cAMP | Potency, µM (doses to about 57.1 µM), without a hit: at the highest dose activation, most hits filed as activators | 73,000 tested, 0.48% active | AID 926; active = well fitted activation curve of enough size with the parental cells flat; inconclusive = any curve in the parental cells; inactive = parental cells flat and receptor cells flat or falling; further: potency means the concentration at half of the fitted maximal effect; % of control where 0% means no effect; weak receptor curves with flat parental cells got no call and are not listed
Target sequence (P16473 whole entry, looked up): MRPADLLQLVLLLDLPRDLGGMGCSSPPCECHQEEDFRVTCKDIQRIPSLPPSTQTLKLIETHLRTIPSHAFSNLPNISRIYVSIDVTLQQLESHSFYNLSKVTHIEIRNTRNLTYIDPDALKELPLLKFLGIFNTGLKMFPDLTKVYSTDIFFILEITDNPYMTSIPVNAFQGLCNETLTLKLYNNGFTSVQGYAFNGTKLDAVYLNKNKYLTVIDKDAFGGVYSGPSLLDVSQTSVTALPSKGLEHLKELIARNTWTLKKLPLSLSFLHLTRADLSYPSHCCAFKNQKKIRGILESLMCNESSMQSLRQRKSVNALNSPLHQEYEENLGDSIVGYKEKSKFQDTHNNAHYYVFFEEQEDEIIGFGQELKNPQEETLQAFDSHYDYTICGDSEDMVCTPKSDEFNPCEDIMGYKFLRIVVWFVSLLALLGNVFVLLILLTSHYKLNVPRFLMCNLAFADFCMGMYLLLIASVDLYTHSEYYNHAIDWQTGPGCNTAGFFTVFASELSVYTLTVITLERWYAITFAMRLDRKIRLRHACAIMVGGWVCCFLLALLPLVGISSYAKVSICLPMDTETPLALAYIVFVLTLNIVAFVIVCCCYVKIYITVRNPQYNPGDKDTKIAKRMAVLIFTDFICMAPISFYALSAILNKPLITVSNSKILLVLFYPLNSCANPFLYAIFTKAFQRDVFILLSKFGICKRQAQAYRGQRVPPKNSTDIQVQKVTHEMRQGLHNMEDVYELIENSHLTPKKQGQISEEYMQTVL
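cAMP rise detected as CNG-channel membrane depolarization by fluorescent dye (emission 590 nm), 30 min after compound, following 60 min dye loading containing 100 uM RO 20-1724 at room temperature. Cells: TSHR/CNG HEK 293, with parental CNG HEK 293 as control.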
A488 autofl: compound autofluorescence in A488 spectral region; compound autofluorescence, A488 spectral region, dye equivalency; hits give high values; max dye equivalency, M; 59,000 tested, 0.1% active; active = above 10 nM dye equivalent; inconclusive = 1 to 10 nM; inactive = 1 nM or less; about half of its hits are not listed in these tables;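 further: highest value over a series up to 38 µM; compound alone in buffer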
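Compound autofluorescence was read in 100 mM Tris pH 8.0 after 15 min at room temperature, ex 480 nm/em 540 nm. Intensities were converted to A488 dye-equivalent concentration using an on-plate six-point A488 standard curve.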
* marks the source's active call; other numbers are inactive results; i = inactive; ? = inconclusive; / = not tested or not shown; & = joins results of further samples; [ ] = another dose, or the depositor's remark. Some of the compounds tested. The share of hits here may be higher or lower than overall.

Order of values – A647 fluor	Resorufin fluor	AID923	TSHR ag	A488 autofl
> COc1ccccc1-c1cc(C(F)(F)F)nc(N2CCN(c3ccccc3)CC2)n1
 : 4e-08	i	-0.3%	9%[11.4 µM]	i
> CCOC(=O)c1c(NC(=O)OC)sc2c1CCC2
 : 2.2e-08	i	-0.2%	/	i
> Cc1ccc(N2CCCCn3c2nc2c3c(=O)[nH]c(=O)n2C)cc1
 : 1e-09	i	0.5%	-5%	i
> Cc1cc2nc(-c3ccc(SCC(=O)N4CCN(C(=O)c5ccco5)CC4)nc3)[nH]c2cc1C
 : 1e-09	i	4.1%	2%	i
> CC(=O)c1cccc(NC(=O)C2CCN(S(=O)(=O)c3ccc(C)cc3)CC2)c1
 : 7.9e-09	i	1.0%	2%	i
> O=C(C1CCCN1S(=O)(=O)c1cccc2cccnc12)N1CCn2c1nc1ccccc12 (stereo not given)
 : /	/	0.7%	-5%	/
> O=C(CCc1ccccc1)Nc1ccc(Cl)cn1
 : 3.1e-09	i	-0.7%	/	i
> N#Cc1ccc(NC(=O)Nc2ccc(Cl)cc2)cc1
 : /	/	0.1%	?	/
> CC(=O)N1CCN(c2ccc(Nc3ncnc4c3oc3ccccc34)cc2)CC1
 : 1.7e-08	i	0.5%	-10%	i
> O=C(Nc1nccs1)c1cc2sccc2n1Cc1ccc(F)cc1
 : 1e-09	i	0.4%	?	i
> CCOC(=O)OCC1OC(CCc2ccccc2)CCC1Oc1ccc(OC)cc1 (stereo not given)
 : /	/	-0.6%[11.5 µM]	11%[11.4 µM]	/
> CCOC(=O)c1cc(-c2ccco2)nc2c1c(C)nn2CCC#N
 : 3e-08	i	1.8%	?	i
> Cc1cc2ncn(/N=C/c3cccnc3)c2cc1C
 : 6.5e-09	i	-3.6%	-3%	i
> CCOc1ccc(N2CC(C(=O)Nc3ccc(S(=O)(=O)N4CCOCC4)cc3)CC2=O)cc1 (stereo not given)
 : 1e-09	i	0.1%	-3%	i
> C1=CC2CC1CC2CN1CCN(c2ccccc2)CC1 (stereo not given)
 : 4.6e-09	i	2.9%	/	i
> O=C(c1cccc(C(=O)N2CCN(c3ccccc3)CC2)c1)N1CCN(c2ccccc2)CC1
 : /	/	-0.6%	?	/
> Cn1cccc1C(=O)N1CCC2(CCCN(C(=O)Nc3cccc(F)c3)C2)CC1
 : 2.2e-08	i	1.3%	10%	i
> COc1cccc(C2/C(=C(\O)c3ccc4c(c3)OCO4)C(=O)C(=O)N2CCN(C)C)c1OC (stereo not given)
 : 7.3e-09	i	-1.2%	-2%	i
> C/C=C/Cn1c(SCc2ccc(Cl)cc2)nc2c1c(=O)[nH]c(=O)n2C
 : 3.3e-08	i	-0.4%	?	i
> O=C(O)C(=O)/C=C(\O)c1ccc(Br)cc1
 : 3.7e-08	i	1.7%[11.5 µM]	7%[11.4 µM]	i
> CC(=O)NC(Cc1c[nH]c2ccccc12)C(=O)N1CCc2ccccc2C1 (stereo not given)
 : 4.3e-08	i	-0.8%	0%	i
> COc1ccc(C(=O)N(Cc2ccco2)Cc2cccs2)c(O)c1
 : 9.4e-09	i	-0.3%	2.5µM*	i
> Cc1cccc(C2N(c3ccc(F)cc3)C(=O)C3CCCN32)c1 (stereo not given)
 : /	/	0.6%	12%	/
> CCc1ccc(Nc2cc(=O)n(C3CCCCC3)c(=O)[nH]2)cc1
 : 3.2e-08	i	-0.5%	5%	i
> CCOC(=O)c1cccc(N2C(=O)C3C(C(=O)NC4CC4)C4(C)C=CC3(O4)C2C(=O)NC(C)(C)C)c1 (stereo not given)
 : 1e-09	i	-0.7%	-3%	i
> CCn1c(N2CCC(C)CC2)nc2c1c(=O)n(C)c(=O)n2C
 : /	/	0.5%	2%	/
> CCCC(C)C(=O)Nc1cccc(NC(C)=O)c1 (stereo not given)
 : /	/	-1.9%	?	/
> CCOC(=O)c1c(C)[nH]c(C(=O)CSc2nnnn2-c2ccc(C)cc2)c1C
 : 3.9e-08	i	0.4%	0%[11.4 µM]	i
> O=C(Nc1nc(-c2ccco2)c(-c2ccco2)s1)C1CC(=O)N(c2ccc3c(c2)OCCO3)C1 (stereo not given)
 : 2.7e-08	i	4.9%	-4%	i
> COc1cccc(-n2c(COc3ccccc3C)nnc2SCC(=O)O)c1
 : 5.1e-09	i	-0.6%	2%	i
> CCOC(=O)N1CCN(C(=O)C(NC(=O)c2ccc(CC)cc2)C(C)C)CC1 (stereo not given)
 : 4.3e-08	i	0.7%	0%	i
> COc1ccc(OC)c(NC(=O)C23CCC(C)(C(=O)C2)C3(C)C)c1 (stereo not given)
 : 1e-09	i	1.0%	8%	i
> COc1ccc(/C(O)=C2\C(=O)C(=O)N(CCN(C)C)C2c2cccc(OC)c2OC)cc1 (stereo not given)
 : 4.6e-09	i	/	/	i
> O=C(CC(O)(c1ccccc1)C(F)(F)C(F)F)c1cccs1 (stereo not given)
 : 1.1e-08	i	1.0%	26%	i
> CCn1c(SCC(=O)Nc2cccc(F)c2)nc2c(c1=O)SC(C)C2 (stereo not given)
 : /	/	-2.7%	?	/
> CCS(=O)(=O)N1CCC(C(=O)NCc2cccc(OC)c2)CC1
 : 1e-09	i	-0.3%	9%	i
> c1ccc(N(c2ccccc2)c2nc(N3CCOCC3)nc(N3CCOCC3)n2)cc1
 : /	/	2.2%	-6%	/
> CC(C)C[C@H](NC(=O)[C@@H]1O[C@H]1C(=O)O)C(=O)NCCCCN=C(N)N
 : 5.1e-08&6e-08	i	-4.1%	?	i
> CC1CCC2C(=O)N3C(CCC(C)C3c3ccc(-c4ccco4)cc3)C(=O)N2C1c1ccc(-c2ccco2)cc1 (stereo not given)
 : /	/	-0.2%[11.5 µM]	-3%[11.4 µM]	/
> COC(=O)c1cccc(CSc2nnc(C)s2)c1
 : 1e-09	i	-0.9%	26%	i

Brought forward from above: 4 entries, then new ones.
Order of values – A647 fluor	Resorufin fluor	AID923	TSHR ag	A488 autofl
> c1ccc(N(c2ccccc2)c2nc(N3CCOCC3)nc(N3CCOCC3)n2)cc1
 : /	/	2.2%	-6%	/
> CC(C)C[C@H](NC(=O)[C@@H]1O[C@H]1C(=O)O)C(=O)NCCCCN=C(N)N
 : 5.1e-08&6e-08	i	-4.1%	?	i
> CC1CCC2C(=O)N3C(CCC(C)C3c3ccc(-c4ccco4)cc3)C(=O)N2C1c1ccc(-c2ccco2)cc1 (stereo not given)
 : /	/	-0.2%[11.5 µM]	-3%[11.4 µM]	/
> COC(=O)c1cccc(CSc2nnc(C)s2)c1
 : 1e-09	i	-0.9%	26%	i
> CCCCCCN(C(=O)CCCCCN1C(=O)NC(c2ccc(-c3ccccc3)cc2)C(C(=O)OCc2ccccc2)=C1C)C(C(=O)NCCCC)c1ccccc1 (stereo not given)
 : /	/	0.5%	-7%	/
> Cc1c(C(=O)N2CCOCC2)sc2nc(-c3ccccc3)cn12
 : 4.3e-09	i	0.0%	17%	i
> CCOC(=O)c1c(C)noc1CP(=O)(c1ccccc1)c1ccccc1
 : 1.4e-08	i	0.4%	?	i
> CC(C)OC(=O)c1cc2c(OC[C@@H](O)CNC(C)(C)C)cccc2[nH]1
 : /	/	-0.5%	12%	/
> CCOC(=O)C1CCN(C(=O)COC(=O)c2ccc(Br)o2)CC1
 : 4.1e-09	i	-1.6%	0%	i
> C=CCn1c(C)cc(C(=O)CSc2nnc(NCc3ccccc3)s2)c1C
 : 5.8e-08	i	-2.8%	?	i
> CC(C)c1cc(CN2CCN(CCC#N)CC2)cc(C(C)C)c1O
 : 1e-09	i	0.0%	1%	i
> Cc1ccc(C2/C(=C(\O)c3cnn(-c4ccccc4)c3C)C(=O)C(=O)N2CCN(C)C)o1 (stereo not given)
 : 1e-09	i	/	/	i
> COc1ccc(C(=O)Nc2c3c(nn2-c2cccc(Cl)c2)CS(=O)C3)cc1 (stereo not given)
 : 1.3e-08	i	1.6%	8%	i
> O=P(O)(CCP(=O)(O)c1ccccc1)c1ccccc1
 : 1e-09	i	9.4%[11.5 µM]	7%[11.4 µM]	i
> COc1ccc(-c2cc3nc4c(c(N5CCC6(CC5)OCCO6)n3n2)CCCC4)cc1
 : 4.7e-09	i	3.3%	?	i
> CN(C)S(=O)(=O)c1ccc(NC(=O)c2ccccn2)cc1
 : 7.8e-08	i	-2.5%	0%	i
> CC(C)(C)NC(=O)CSc1nccn1Cc1ccccc1
 : /	/	0.2%	5%	/
> CCOCCCNC(=O)C1CCC(=O)N1CCc1ccccc1 (stereo not given)
 : 6.3e-09	i	-1.9%	-3%	i
> COc1ccc([C@@H](Nc2ccccn2)c2cc(C(C)(C)C)cc(C(C)(C)C)c2O)cc1
 : 1e-09	i	-0.8%[11.5 µM]	4%[11.4 µM]	i
> COc1ccccc1N1CCN(C2=CC(=O)CCC2)CC1
 : 6e-09	i	2.0%	-8%[11.4 µM]	i
> CCOc1ccccc1NS(=O)(=O)c1ccc(OC)c(OC)c1
 : 1e-09	i	-0.5%	8%	i
> COC(=O)c1cc2sccc2n1CC(=O)Nc1cc(OC)cc(OC)c1
 : 2e-08	i	-0.9%	6%[11.4 µM]	i
> CCOC(=O)NCCc1c(C)nc2c(c(C)nn2C(C)(C)C)c1C
 : 8.8e-09	i	-1.1%	/	i
> C/C(=C\c1ccc(Cl)cc1)C(C)(C)C(=O)O
 : 1e-09	i	0.6%[11.5 µM]	8%[11.4 µM]	i
> COc1cccc2cc(C(=O)C3=C(O)C(=O)N(Cc4ccco4)C3c3cccnc3)oc12 (stereo not given)
 : 1e-09	i	1.0%	-6%	i
> Cc1cc(NC(=O)Cn2cnc3c2c(=O)n(C)c(=O)n3C)n(-c2ccccc2)n1
 : 2.1e-09	i	1.3%	-4%	i
> O=C(NCCCN1CCN(c2ccccc2F)CC1)C1CCC(=O)N1C1CCCCC1 (stereo not given)
 : 1.6e-09	i	0.6%	-4%	i
> CCNc1nc(OC)nc(Oc2ccc(=O)n(-c3ccccc3)n2)n1
 : 1.2e-08	i	0.4%	2%	i
> CC1(C)CC(=O)C2=C(C1)N(Cc1ccco1)C(=O)C2(NC(=O)C1CCCCC1)C(F)(F)F (stereo not given)
 : 4.1e-08	i	0.8%	26%	i
> Cc1ccc2[nH]c3c(=O)n(CCN4CCNCC4)cnc3c2c1
 : 2.3e-09	i	1.4%	-10%	i
> COc1ccc(OC)c(NC(=O)C(CC(=O)O)NCc2ccco2)c1 (stereo not given)
 : 1.5e-09	i	0.7%	-3%	i
> CCC(C)(C(=O)NC1CCCCC1)N(CC1CCCO1)C(=O)c1ccccn1 (stereo not given)
 : 4.2e-08	i	-1.1%	?	i
> Cc1cc(NC(=O)c2noc3c2CCCCC3)nn1Cc1ccc(Cl)cc1
 : 1.7e-08	i	0.4%	?	i
> CC(NC(=O)c1ccccc1)c1nc2ccccc2n1Cc1ccc(C#N)cc1 (stereo not given)
 : 1e-09	i	-1.8%	?	i
> CCOc1ccc(Oc2nc(NCC(C)C)nc(OC)n2)nn1
 : /	/	-0.4%	0%	/
> Cc1nc2cnc(N3CCNCC3)nc2n(-c2ccccc2)c1=O
 : 1e-09	i	17%	-1%	i
> CC(=O)Nc1c(C#N)c(C(C)(C)C)cn1C
 : 4.1e-09	i	-1.6%	15%	i
> COc1cc(C2C3C(=O)N(c4ccccc4)C(=O)C3ON2c2ccccc2)cc(OC)c1OC (stereo not given)
 : 3.1e-08	i	1.3%	-4%	i
> COCCNC(=O)Cn1nc(C(F)(F)F)cc1C
 : /	/	2.3%	5%	/
> COc1ccccc1CNc1ncnc2ccc(-c3cccc(C#N)c3)cc12
 : 1.1e-08	i	0.4%	?	i
> CCn1c(SCC(=O)c2ccc(CNC(C)=O)o2)nnc1-c1cccs1
 : 1e-09	i	-1.5%	7%	i
> Cc1cccc(N(CC(=O)N2CCCC2)S(=O)(=O)c2ccccc2)c1C
 : /	/	-0.7%	23%[11.4 µM]	/
